Bioassay records: PubChem, ICCB-Longwood Screening Facility, Harvard Medical School
BasE inh: inhibitors of Acinetobacter baumannii siderophore enzyme BasE. purified BasE, fluorescence polarization binding displacement. inhibition, % (concentration not given with the values). 84,000 tested, 0.1% active. AID 485350;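 active means both replicates above 25% with normal brightness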;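 further: 0% = negative plate control signal and 100% = positive plate control signal; stock transfer was 100 nL into about 30 µL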
KSHV LANA nucl: inhibitors of KSHV LANA binding to nucleosomes | FITC-LANA1-23 / chicken nucleosome fluorescence polarization; stronger effect = lower value | z-score (concentration not given with the values) | 51,000 tested, 0.3% active | AID 720717;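 active means both repeat wells score below -2 in polarization z-score versus plate sample wells, excluding overly bright wells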;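 further: 100 nL library stock added to about 30 µL; numbers are from one replicate; some results filed as inactive read as strong as hits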
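Test system: purified chicken nucleosomes with FITC-labelled LANA N-terminal peptide (1-23); Input: 240 nM purified chicken nucleosomes (480 nM peptide binding sites), final; Medium: TEN-BT buffer, pH 7.5; Timing: 10–45 min, room temperature; Technique: fluorescence polarization, 480 nm excitation, 535 nm parallel and perpendicular emission; Replication: duplicates.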
Starred values were filed as active, the others as inactive; . = no result given.

SMILES	BasE inh	KSHV LANA nucl
CCCc1c(C(=O)NNc2ccccc2OC)cnn1-c1ccccc1	2.2	0.33
O=C(O)c1cccc(OCc2cscn2)c1	0.2	.
CC(C)NC(=O)CCc1c[nH]c2ccccc12	0.6	.
O=C(CC(=O)Nn1cnnc1)Nn1cnnc1	-1.4	0.41
CC(Nc1nncc(=O)[nH]1)c1ccccc1 (stereo not given)	-3.2	-0.34
CCn1c(/N=C/c2ccccc2Cl)nc2ccccc21	-1.4	-0.14
COc1ccc(CC(=O)NCc2nn(-c3ccccc3)nc2C)cc1OC	-1.6	0.053
CC(C)=NNC(=O)c1nnn(-c2nonc2N)c1CN1CCOCC1	1.5	-0.27
O=c1c2ccccc2nnn1CSc1nncn1-c1ccccc1	0.8	.
O=C(O)Cn1cc(C(F)(F)F)ccc1=O	0.8	.
CN(C)CN1C(=O)C(=Nc2ccc3ccccc3c2)c2ccccc21	1.6	.
CCc1noc(C)c1C(=O)OCC(=O)c1ccccc1OC	0.7	.
COc1cccc(C(=O)Cn2c(=O)n(CCC(=O)NC3CCCC3)c(=O)c3cc(OC)c(OC)cc32)c1	1.2	-0.52
CC(C)OCCn1cnc2sc3c(c2c1=O)CCCC3	1.2	0.042
CN1C(=O)/C(=C\C=C\c2ccc(N(C)C)cc2)SC1=S	-0.2	.
Cn1cc(CC(=O)Nc2ccc(F)cc2F)c2ccccc21	2.1	-0.37
O=C(COc1ccccc1)NCC1COc2ccccc2O1 (stereo not given)	1.6	-0.46
CN(Cc1ccco1)c1nc(-c2ccc(Cl)cc2)nc2ccccc12	-0.7	1
Cc1c(-c2cnccn2)ssc1=S	.	0.36
COC(C(=O)O)C(=O)Nc1cc(Cl)cc(Cl)c1 (stereo not given)	.	-0.0045
Cc1cn2c(=O)c3c4c(sc3nc2s1)CCCC4	0.4	-1.6
O=C(CCc1ccc(-n2cnc3cccnc32)cc1)NCCc1cccs1	0.5	0.74
Cc1nnc(SC(C)C(=O)Nc2ccc(N3CCOCC3)cc2)n(N)c1=O (stereo not given)	0.0	.
COc1ccc(/C=C2\SC(=O)N(CCNC(=O)c3cc(S(=O)(=O)N(C)C)ccc3N3CCCC3)C2=O)cc1	0.4	.
COc1ccc(-c2c(-c3ccc(OC)c(OC)c3)c(C)n(C)c2C)cc1OC	-2.1	.

Single records (already shown). Screens in order: BasE inh	KSHV LANA nucl
O=C(COc1ccccc1)NCC1COc2ccccc2O1 (stereo not given) as listed: 1.6	-0.46
CC(C)=NNC(=O)c1nnn(-c2nonc2N)c1CN1CCOCC1 as listed: 1.5	-0.27
O=C(O)c1cccc(OCc2cscn2)c1 as listed: 0.2	.

(list continues)
SMILES	BasE inh	KSHV LANA nucl
CC(C)n1nccc1N(Cc1ccc(Cl)cc1)S(=O)(=O)c1ccccc1	1.2	.
NC(=O)C1CCN(C(=O)CSc2nc3ccccc3s2)CC1	-2.4	0.39
CC(C)(C)c1ccc(-c2[nH]nc(NC(=O)c3ccccc3Cl)c2Br)cc1	0.0	.
O=S(=O)(NC1CC2CCC1C2)c1ccc(Cl)cc1 (stereo not given)	-0.6	.
COc1ccc(/C=C2\Oc3ccccc3N(CC(=O)N3CCN(c4ncccn4)CC3)C2=O)cc1Br	-1.5	-0.57
CN(C)CCNC(=O)c1ccc(N2CCCCS2(=O)=O)cc1	0.7	0.52
CC12CCC3(C)OCC(COC(=O)Nc4ccccc4)(CO1)N23 (stereo not given)	-1.3	-0.72
COc1ccc(CNC(=O)c2[nH]c(C)c(C(=O)NC3CCCCC3)c2C)cc1	0.8	-1.3
Cn1nc(C(C)(C)C)cc1C(=O)NCc1ccc(-c2cccs2)cc1	1.2	.
COc1cccc(-c2nn(Cc3ccccc3)cc2CNCCCn2ccnc2)c1	-1.5	.
COc1ccc(N2C(=O)C(C)C(Cc3ccc(C)cc3)C2=O)cc1 (stereo not given)	-1.2	0.67
CC1(C)CN(c2ccc(Cl)cn2)C1=O	.	-0.34
CC1CCCCN1S(=O)(=O)c1ccc(NC(=O)Cn2cnc3ccccc3c2=O)cc1 (stereo not given)	-0.1	0.008
NC(=O)/C=C/c1ccco1	-0.8	0.35
Cc1cc(C)cc(OCC(=O)OCC(=O)c2ccc3c(c2)OCO3)c1	2.3	.
CC1(C)Cc2ccccc2-c2nc(NN)[nH]c(=O)c21	-1.4	-0.095
CN1CCCN(C(=O)c2ccncc2)CC1	0.2	-0.81
CC(NC(=O)c1ccccc1)C(c1cccs1)N1CCOCC1 (stereo not given)	1.0	-1.8
CCn1c(SCC(=O)Nc2nc(C)c(C)s2)nnc1C(C)NC(=O)c1ccccc1F (stereo not given)	-0.4	0.32
CCCCCCOc1ccc(/C=C(\C#N)C(=O)NCc2ccco2)cc1	2.0	.
O=C(COn1nnc2ccccc21)Nc1ccccc1C(=O)Nc1ccc2c(c1)OCO2	2.8	.
Cc1ccc(CNc2cc(-c3nn4c(C)nnc4s3)ccc2C)s1	-2.7	-0.043
COC(=O)c1ccc2c(=O)[nH]c(COC(=O)c3ccccc3SCC(=O)N3CCCC3)nc2c1	-1.2	.
O=C(Oc1ccccc1OC(=O)N1CCCCC1)N1CCCCC1	2.1	-0.53
Cc1ccc(S(=O)(=O)C[C@H]2O[C@@H](n3cc(I)c(=O)[nH]c3=O)C[C@@H]2O)cc1	2.8	.

Taken from the results shown (4 entries):
SMILES	BasE inh	KSHV LANA nucl
CCCc1c(C(=O)NNc2ccccc2OC)cnn1-c1ccccc1	2.2	0.33
O=C(O)c1cccc(OCc2cscn2)c1	0.2	.
CC(C)NC(=O)CCc1c[nH]c2ccccc12	0.6	.
O=C(CC(=O)Nn1cnnc1)Nn1cnnc1	-1.4	0.41

The main list resumes, repeating the 3 entries before the break.
SMILES	BasE inh	KSHV LANA nucl
COC(=O)c1ccc2c(=O)[nH]c(COC(=O)c3ccccc3SCC(=O)N3CCCC3)nc2c1	-1.2	.
O=C(Oc1ccccc1OC(=O)N1CCCCC1)N1CCCCC1	2.1	-0.53
Cc1ccc(S(=O)(=O)C[C@H]2O[C@@H](n3cc(I)c(=O)[nH]c3=O)C[C@@H]2O)cc1	2.8	.
Cc1nn(-c2ccc(F)cc2)c(C)c1/C=C/C(=O)NC(C)(C)C	0.7	.
CN1CCCN(C(=O)c2cccs2)CC1	1.4	-0.55
O=C(Cc1ccccc1)N/N=C1/CCS(=O)(=O)c2ccc(F)cc21	-3.6	.
Cc1nnc2sc(-c3ccc(F)cc3)nn12	1.0	0.67
Cc1cc(=O)[nH]c(NN=C2CCC(C(C)(C)C)CC2)n1 (stereo not given)	2.4	.
CCc1ccc2c(c1)CCCN2C(=O)c1ccccc1C(=O)O	-1.1	1.3
CCOCCC(=O)Nc1cc(C)ccn1	1.2	-1
CC1=C/C(=N\NC(=O)c2cc(C)oc2C)CC1	0.3	.
CCCn1c2c(c(O)c(C(=O)Nc3ccccc3F)c1=O)CCCC2	-0.9	-0.04
O=C(Nc1ccsc1C(=O)O)c1ccccc1	.	0.82
O=C(c1ncoc1-c1ccccc1)N(Cc1ccccn1)Cc1ccccn1	0.7	.
O=C(CCN1C(=O)c2ccccc2S1(=O)=O)N1CCN(c2ccccc2)CC1	1.2	-0.31
O=C(C1=Cc2sc3c(c2CS1)CCCC3)N1CCCC1	0.1	0.46
Cc1cc2[nH]c(=O)cc(C)n2n1	-0.9	-0.35
COc1ccc(-c2csc(C)n2)cc1	0.4	-1.8
Cc1nc2nc(N)nn2c(C)c1CCC(=O)OCc1cccc(Cl)c1	1.1	.
N#Cc1ccc2c(c1)N(Cc1c(F)cccc1Cl)C(=O)C1CCCN21 (stereo not given)	.	0.88
O=C1C2(Cc3ccccc3)CN3CN(C2)CC1(Cc1ccccc1)C3	0.0	-0.6
NS(=O)(=O)c1ccc(-c2ccc(/C=N/NC(=O)CSc3ccccc3F)o2)cc1	-0.9	.
CCOC(=O)NNc1nc2ccccc2o1	-1.5	-0.018
S=C(NNc1ccccc1)c1ccccc1	0.8	-0.5
COc1ccc(S(=O)(=O)NC2CCCCC2)cc1	-1.9	.
COc1ccc2ncc(C(=O)O)c(NCCO)c2c1	0.3	-1.5
O=C(CSC1=NCCS1)NCc1ccc2c(c1)OCO2	2.6	.
O=C(CN1CCSC1=O)Nc1cccc(-c2nnc3n2CCCCC3)c1	0.5	.

Next part
SMILES	BasE inh	KSHV LANA nucl
CCOC(=O)C1CCCN(C(=O)c2cc3ccccc3oc2=O)C1 (stereo not given)	2.1	0.87
CC1=CN2C(=NC(C(F)(F)F)(C(F)(F)F)N=C2c2ccco2)C=C1	0.3	-0.33
Cc1onc(-c2c(Cl)cccc2Cl)c1NC(=O)NCC(c1ccc[nH]1)C(F)(F)F (stereo not given)	3.5	0.45
COc1ccc(N2C(=O)/C(=C\c3ccc(C(C)C)cc3)C(=O)NC2=S)cc1	-1.2	.
O=C(CSC(=S)N1CCSCC1)c1ccccc1	3.4	.
COc1cc(/C=C/C2=NNC(=O)CC2)cc(OC)c1OC	1.6	0.061
NC(=O)N/N=C/c1cn(-c2ccccc2)nc1-c1ccccc1	-3.7	2.4
COc1cccc(C2Nc3ccccc3-c3nc4ccccc4n32)c1 (stereo not given)	0.8	0.26
CNc1c(NC(=O)Nc2cccc(OC)c2)c(=O)oc2ccccc12	-2.8	1
CC(C)(C)C(=O)Nc1ccc(N2CCN(C(=O)c3ccco3)CC2)c(Cl)c1	-1.0	-1.4
CCC(=O)N1c2ccc(S(=O)(=O)CCC(=O)Nc3ccc(C)c(F)c3)cc2CC1C (stereo not given)	1.2	-0.48
CCN1C(=O)C(=Cc2ccc(-c3ccc(Br)c(Cl)c3)o2)C(=O)N(CC)C1=S	-4.0	2.3
O=C(CSc1nccc(=O)[nH]1)CSc1nccc(=O)[nH]1	1.4	.
CCN1CCCC1CNc1ncnc2c1cnn2-c1ccc(C)cc1 (stereo not given)	-6.0	0.63
COC(=O)c1ccc(-c2ccco2)n1CC(=O)N1CCc2ccccc21	-0.2	-0.16
CNS(=O)(=O)c1cccc(C(=O)NCc2ccccc2)c1	0.3	.
Cc1[nH]c2ccc(CNS(=O)(=O)c3ccc(S(=O)(=O)N4CCOCC4)cc3)cc2c1C	0.1	-0.25
O=C(CCNc1ccc(Cl)cc1)c1cccs1	5.5	-0.2
[O-]/[N+](=C\c1ccc(OC(F)F)cc1)c1ccccc1	-1.7	0.1
CC1CC(=O)Nc2ccccc2N1S(=O)(=O)c1ccc(C(F)(F)F)cc1 (stereo not given)	-1.7	0.68
Oc1ccc(O)c(C2CC3CCC2C3)c1 (stereo not given)	-1.3	0.89
CCN(CC)Cc1nc2c(c(=O)[nH]1)C(CC)(CC)Cc1ccccc1-2	0.8	-0.8
CCC(CC(=O)NCc1ccc(Cl)cc1Cl)n1ccnc1 (stereo not given)	0.2	.
CN(C)N1C(=O)CC(n2cnc3ccccc32)C1=O (stereo not given)	-0.6	0.38
O=C(Cc1ccc2c(c1)OCCO2)Nc1cccc(C(F)(F)F)c1	0.3	.

More structures.
SMILES	BasE inh	KSHV LANA nucl
COc1ccc2[nH]c3ccccc3c2c1	2.0	-0.45
CCNC(=O)c1cccc(NC(=O)Cc2n[nH]c(=O)c3ccccc23)c1	-0.3	.
Cc1ccc(S(=O)(=O)N/N=C/c2c(O)ccc3oc4c(c23)CCCC4)cc1	-0.3	.
CCOc1cc(N2CCOCC2)c(OCC)cc1NC(=O)COC(=O)CN=C1NS(=O)(=O)c2ccccc21	-1.2	.
COCCNc1oc(-c2cccc(C)c2)nc1C#N	0.5	-0.12
Cn1c(SCc2cc(=O)n3cc(Br)ccc3n2)nnc1-c1ccco1	0.5	.
Cc1nn(-c2ccccc2)c2c1C(O)n1c(nc3ccccc31)S2 (stereo not given)	0.6	.
CCN(CC(=O)Nc1ccc(SC(F)F)cc1)CC1COc2ccccc2O1 (stereo not given)	1.5	.
CCn1c(SCC(=O)Nc2ccccc2OC)nc2c([nH]c3ccccc32)c1=O	0.2	0.47
CC(=O)Nc1ccc(NC(=O)Nc2cccs2)cc1	3.7	-0.41
O=C(c1ccccc1)N1CCN(C(=O)C2(c3ccccc3)CC2)CC1	1.2	.
COc1ccc2c(c1)CCC/C2=N\NC(N)=S	0.1	-0.05
CCc1c(C)c(C#N)c2nc3ccccc3n2c1Nc1ccncc1	-2.7	.
Cn1cnc2cc(NC(=O)COc3ccccc3)ccc21	0.9	1
CCS(=O)(=O)N1CCN(S(=O)(=O)c2ccc(C)cc2)CC1	2.0	-1
CC1=CC(=O)C(N(CCO)CCO)=CC1=O	-1.2	.
CCc1ccc2c(c1)C1(NN=C(c3ccccc3)S1)C(=O)N2 (stereo not given)	1.6	0.21
CCn1c(C(=O)O)c(S(=O)(=O)c2ccc(Cl)cc2)c2ccccc21	3.5	-0.11
CCc1c(C(=O)NCCN(C)C)csc1C	1.1	-1
Oc1ccc(C(=S)N2CCN(c3cccc(Cl)c3)CC2)cc1	-2.1	-1
Cc1cc(C(=O)CSc2ccc3c(c2)OCCO3)c(C)n1C	1.7	.
COCc1cc(C)n(CC(=O)N2CCC(C)CC2)c(=O)c1C#N	-0.2	0.054
CN(C)/C=C1\S/C(=N\S(=O)(=O)c2ccc(Cl)cc2)N(C2CCCCC2)C1=O	1.3	.
CCOC(=O)c1c(-c2cccs2)csc1NC(C)=O	-1.6	-1.4

A second format for part of the listing above:
CCOC(=O)c1c(-c2cccs2)csc1NC(C)=O
  BasE inh = -1.6
  KSHV LANA nucl = -1.4
CCc1c(C(=O)NCCN(C)C)csc1C
  BasE inh = 1.1
  KSHV LANA nucl = -1
Cc1nn(-c2ccccc2)c2c1C(O)n1c(nc3ccccc31)S2 (stereo not given)
  BasE inh = 0.6
  KSHV LANA nucl = .

The list is partial (hit frequency here may not be typical).
